# Rce1 inhib: yeast Rce1p protease inhibitors, primary screen, biochemical, fluorescence, cell-free homogeneous; yeast membranes, quenched prenylated peptide cleavage fluorescence; calls only; 290,000 tested, 0.27% active; AID 2563, 2010;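 active means fall in fluorescence gain of 50% or more versus controls, with final raw signal at or below 3038400; inconclusive means same 50% fall but final raw signal above 3038400; inactive means fall in fluorescence gain under 50%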;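 further: plate controls were neutral control wells for no effect and wells lacking membranes for full effect; tested at 10 µM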
# Target sequence (Q03530 whole entry, looked up): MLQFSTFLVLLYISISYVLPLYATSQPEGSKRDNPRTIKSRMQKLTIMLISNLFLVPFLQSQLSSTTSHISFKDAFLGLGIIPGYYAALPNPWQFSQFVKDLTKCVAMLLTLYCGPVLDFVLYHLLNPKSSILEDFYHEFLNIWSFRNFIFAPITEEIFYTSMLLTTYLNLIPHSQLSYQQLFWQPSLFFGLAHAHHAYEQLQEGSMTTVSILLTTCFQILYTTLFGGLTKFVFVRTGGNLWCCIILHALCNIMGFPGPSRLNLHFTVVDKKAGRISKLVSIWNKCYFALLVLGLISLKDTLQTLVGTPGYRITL
# CSC inhib: cancer stem cell viability inhibitors, primary screen, luminescence; cancer stem cell-like cells viability; inhibition, % at 7.5 µM; 300,000 tested, 1.1% active; AID 2717, 2010;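 active means mean at 75% or more and at least half the replicates too; inconclusive means mean and replicates disagree; tested in HMLE shEcad cells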;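 further: 0% = median of negative and 100% = median of positive control wells; the first replicate is given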
# PABP polyA inh: PABP poly(A) RNA binding inhibitors, primary screen, biochemical, fluorescence polarization, uHTS. inhibition, % at 35 µM. 290,000 tested, 1% active;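 active means 50% or more with normal probe brightness, or confirmed in later tests; inconclusive means above 50% with abnormal brightness, or retests that disagree; inactive means below 50% or failed in later tests; about a fifth of its hits are not listed in these tables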;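 further: calls also rest on retests at 20 µM and on dose response follow-up; controls were probe without protein and protein plus probe with vehicle; some compounds called inactive have numbers as strong as hits; many hits fall short of the cut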
# Target sequence (P11940 whole entry, looked up): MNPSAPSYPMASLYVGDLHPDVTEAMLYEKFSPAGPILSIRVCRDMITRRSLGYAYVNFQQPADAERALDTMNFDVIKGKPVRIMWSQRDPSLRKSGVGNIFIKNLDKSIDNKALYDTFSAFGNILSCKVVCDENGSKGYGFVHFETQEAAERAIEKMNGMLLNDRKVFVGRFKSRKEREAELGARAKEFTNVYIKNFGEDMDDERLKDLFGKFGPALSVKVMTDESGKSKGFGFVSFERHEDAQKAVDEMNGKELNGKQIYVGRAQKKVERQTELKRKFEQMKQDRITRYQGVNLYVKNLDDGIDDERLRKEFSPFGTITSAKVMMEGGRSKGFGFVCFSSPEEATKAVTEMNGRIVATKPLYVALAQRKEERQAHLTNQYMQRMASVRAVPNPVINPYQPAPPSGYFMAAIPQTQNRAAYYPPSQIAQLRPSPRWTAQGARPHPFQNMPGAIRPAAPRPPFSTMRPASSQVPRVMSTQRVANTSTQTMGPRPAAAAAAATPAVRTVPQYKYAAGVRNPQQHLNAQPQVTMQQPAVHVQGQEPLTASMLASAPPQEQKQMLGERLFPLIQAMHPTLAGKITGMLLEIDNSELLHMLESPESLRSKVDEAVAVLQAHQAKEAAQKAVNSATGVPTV
# Env fusion inh: inhibitors of HIV-1 Env-driven cell-cell fusion, primary screen, HeLa-JRFL effector, CEM21 target cells, luciferase; inhibition, % at 12.3 µM; 360,000 tested, 1.1% active;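 active means mean replicate inhibition score of at least 50 and every replicate individually at or above 50; inconclusive means only one of the two criteria met; inactive means mean below 50 and not all replicates reaching 50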;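 further: 0% = plate neutral controls and 100% = maraviroc near 300 nM; one replicate is shown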
# MT1-MMP act inh: blockers of MT1-MMP proenzyme processing, primary screen, HT1080 RFP-PRO-GFP cells, GFP/RFP fluorescence; Matrix metalloproteinase-14 (Homo sapiens), P50281; GFP/RFP ratio fluorescence, overnight; percent of plate control window, DMSO zero; GFP/RFP ratio change, % at 20 µM; 360,000 tested, 0.061% active;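 active means GFP/RFP ratio change of at least 30% with cell ATP level not reduced by more than half and red fluorescence within 50% of control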; further: strong numbers were not always called active
#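 Read-out: GFP/RFP fluorescence ratio; Test system: RFP-PRO-GFP reporter HT1080 cells; Compound dosing: single-point 20 µM compound, 1% DMSO; Times: overnight compound exposure at 37 °C.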
# eIF4H inh: human eIF4H binding inhibitors, primary screen, translation initiation inhibitor project, biochemical, uHTS, fluorescence polarization; Eukaryotic translation initiation factor 4H (Homo sapiens), Q15056; eIF4H fluorescence polarization binding assay; inhibition, % at 35 µM; 290,000 tested, 0.94% active; AID 2012, 2009;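 active means 50% or more with normal probe brightness, or confirmed in later tests; inconclusive means above 50% with abnormal brightness, or retests that disagree; inactive means below 50% or failed in later tests; about a fifth of its hits are not listed in these tables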;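 further: calls also rest on retests at 20 µM and on dose response follow-up; 0% = protein and probe with vehicle and 100% = probe without protein; strong numbers were not always called active; many hits fall short of the cut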
# Yeast UUG start: modulators of yeast start codon fidelity, primary screen, whole organism, S. cerevisiae, single point, plate reader; S. cerevisiae UUG-firefly luciferase reporter, luminescence/redox ratio; activity score, % at 18.7 µM; 350,000 tested, 0.13% active; AID 602363, 2012;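 active means replicate mean at a twofold rise or more, about +100% in these data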;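 further: firefly luciferase made from a UUG start codon reports start codon fidelity; reporter light over untreated wells divided by growth signal over untreated wells; some hits fall short of that in this replicate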
# eIF4H inh retest: second read-out of eIF4H inh, no call of its own (marks repeat the call); inhibition, %; compound at 20 µM; confirmation average;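 mean of two retest wells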
# PABP polyA inh retest: also measured in PABP polyA inh; calls as there; inhibition, %; compound at 20 µM; confirmation repeats;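 mean of two retest wells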
# MT1-MMP act inh RFP: recorded beside MT1-MMP act inh, whose call it bears; RFP signal change, %; measured here: RFP expression control read;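 0 = vehicle wells; hits needed this value within 50% of zero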
# The depositor's hits bear a star; i = inactive; ? = inconclusive; nt = not tested or not shown. The list is partial (hit frequency here may not be typical).
SMILES,Rce1 inhib,CSC inhib,PABP polyA inh,Env fusion inh,MT1-MMP act inh,MT1-MMP act inh RFP,eIF4H inh,Yeast UUG start,others
NC(=O)c1ccc(NC(=O)CN2CCN(C(=O)c3ccco3)CC2)cc1,i,-1,2,-9,1,0,-3,0,
COc1ccc(CCNC(=O)C2(C)CCC(=O)N2CCC(C)C)cc1OC (centres undefined),i,12,-10,14,1,3,2,4,
Cn1c(=O)c2c(nc(NCC(O)CO)n2CCc2ccccc2)n(C)c1=O (centres undefined),i,-14,-2,nt,4,6,0,9,
NS(=O)(=O)c1ccc(NC(=O)COc2ncnc3sccc23)cc1,i,-17,-1,-6,8,15,1,-8,
CC(C(=O)Nc1ccccc1-c1ccccc1)N1CCOCC1 (centres undefined),i,-6,58,nt,-3,1,-7,6,eIF4H inh retest=0;PABP polyA inh retest=7
CCOc1ccc(C(=O)N2CCN(c3cccc(Cl)c3)CC2)cc1,i,-1,-13,7,0,3,0,nt,
CCOc1ccc(N2CC(C(=O)Nc3cccnc3)CC2=O)cc1 (centres undefined),i,-2,-4,nt,1,-1,-6,-14,
COc1cc(/C=N/NC(=S)N/N=C/c2cc(OC)c(OC)c(OC)c2)cc(OC)c1OC,i,-2,-12,0,14,2,-1,nt,
CC(=O)c1cn(CC(=O)NCC2CCCO2)c2ccccc12 (centres undefined),i,nt,-10,-69,4,6,-11,1,
Cc1cc(C)cc(N(C(=O)c2csnn2)C(C(=O)NC2CCCCC2)c2cccnc2)c1 (centres undefined),i,1,4,0,-2,3,0,-8,
COc1cccc(Cn2cnc3c(NS(=O)(=O)c4cccc(Cl)c4Cl)c(C)c(C)cc32)c1,i,nt,10,-6,-3,-13,11,-10,
CCC(=O)NCCc1nc2ccccc2n1CC,i,-12,-6,-2,7,8,-9,-8,
O=C(CSc1nc(=O)n(CCCN2CCOCC2)c2c1CCC2)Nc1cccc(F)c1,i,-14,nt,-9,4,2,nt,-6,
O=C(CN1CCN(Cc2ccccc2)C1=O)NCc1cccs1,i,-10,-7,2,0,0,3,-16,
COc1ccc(S(=O)(=O)N2CCOCC2)cc1NC(=O)CCCSc1ccccc1,nt,nt,nt,7,1,3,nt,-9,
CC(NC(=O)CCN1C(=O)c2ccccc2C1=O)c1ccccc1 (centres undefined),i,-10,-1,-5,0,0,-5,-11,
COc1ccc2c(CC(=O)NCc3cccs3)coc2c1,i,10,-1,-6,-4,-2,13,-10,
COC(=O)c1ccc(CSc2nncn2N)cc1,i,-8,?,3,-2,0,5,-19,
CC(=O)Oc1ccc(CC(C(=O)O)N2C(=O)c3ccccc3C2=O)cc1 (centres undefined),i,-2,11,18,1,3,-2,-15,
c1ccc(-c2noc(CN3CCN(c4cnccn4)CC3)n2)cc1,i,5,-15,3,8,-6,1,-16,
CCOc1ccc(NC(=O)CN(C)C(=O)Cc2ccc3c(c2)OCCO3)cc1OCC,nt,nt,nt,-42,1,3,nt,1,
O=C(COC(=O)/C=C/c1ccccc1)NC(=O)NC1CCCCC1,nt,-12,nt,?,1,-4,nt,-2,
CN(C)C(CNC(=O)c1cc(Br)ccc1Cl)c1ccco1 (centres undefined),i,7,6,-2,-1,1,-1,0,
CCn1c(=NC(=O)c2ccc(S(=O)(=O)N3CCOCC3)cc2)sc2cccc(OC)c21,i,33,13,nt,-4,-15,0,-52,
O=C1N=C(c2ccccc2)S/C1=C\c1cccs1,i,11,22,-38,-5,4,9,nt,
Cc1sc(NC(=O)c2cccc(N3C(=O)CCC3=O)c2)nc1-c1ccccc1,i,7,nt,-4,1,-6,nt,-1,
Cc1cc(NC(=O)CSc2nncn2-c2ccccc2)no1,i,-5,-16,1,-4,1,-3,nt,
CCOc1ccccc1OCC(=O)Nc1cc(C)on1,nt,-22,nt,1,1,1,nt,-14,
N#Cc1cccc(-n2nnnc2-c2ccc3c(c2)OCO3)c1,i,-6,-10,-65,-1,0,-14,-6,
COC(=O)C[C@H]1C[C@H]2c3cc(NS(=O)(=O)c4cccc(OC)c4)ccc3O[C@H]2[C@@H](CO)O1,nt,nt,nt,-10,6,5,nt,-6,
CC(=O)N1CCN(C(=O)c2ccc(NS(=O)(=O)c3cc(C)ccc3C)cc2)CC1,i,55,nt,nt,-5,-3,nt,nt,
Cc1cccc(-c2nsc(SCC(=O)c3ccc(Cl)cc3)n2)c1,i,25,7,-17,nt,nt,2,nt,
O=C(C(=Cc1ccc(F)cc1)c1ccccc1)c1ccc(O)cc1,nt,nt,nt,8,1,-5,nt,-17,
Brc1ccc2[nH]ncc2c1,i,-8,-2,-93,-8,-2,5,-9,
NC(=O)CSc1nc2ccccc2n1Cc1ccccc1,i,2,-3,21,8,4,-4,nt,
CCOc1ccc(C(CCc2ccccc2)NC(=O)c2ccccc2OC)cc1OCC (centres undefined),i,-7,-2,nt,-1,-2,-5,-2,
Cc1ccc(O)c(C2=Nc3ccccc3N=C(c3ccc([N+](=O)[O-])cc3)C2)c1,i,-1,-3,-6,5,-9,-6,-7,
O=Cc1cn(CCOc2ccccc2F)c2ccccc12,i,5,-2,-18,-5,-14,-12,-4,
CC(Oc1ccccc1)C(=O)N=Nc1c(O)[nH]c2ccc([N+](=O)[O-])cc12 (centres undefined),i,1,-2,11,-2,-5,7,nt,
O=C1c2ccccc2C(=O)N1CCc1ccccc1,i,2,nt,-12,1,3,nt,-17,

# Brought forward from above: two entries, then new ones.
SMILES,Rce1 inhib,CSC inhib,PABP polyA inh,Env fusion inh,MT1-MMP act inh,MT1-MMP act inh RFP,eIF4H inh,Yeast UUG start,others
CC(Oc1ccccc1)C(=O)N=Nc1c(O)[nH]c2ccc([N+](=O)[O-])cc12 (centres undefined),i,1,-2,11,-2,-5,7,nt,
O=C1c2ccccc2C(=O)N1CCc1ccccc1,i,2,nt,-12,1,3,nt,-17,
C/C(CCc1ccc2c(c1)OCO2)=N\N=C(/N)SC1CC(=O)N(c2ccc(Cl)cc2)C1=O (centres undefined),i,10,5,-35,6,-3,2,-12,
CCc1ccc(CN(C)CCc2ccccn2)cc1,i,-3,10,nt,12,9,3,-18,
COc1ccc(C(=O)NCCc2cn3ccccc3n2)cc1,i,-4,-13,-51,3,-2,-4,-13,
O=C(CNC(=O)c1ccc(Br)cc1)N/N=C/c1ccc[nH]1,i,-15,3,nt,-5,1,5,nt,
COc1ccc(C(CNC(=O)c2ccccc2C)N2CCCC2)cc1 (centres undefined),i,-6,-10,-69,2,5,-17,-13,
Oc1c(Br)cc(/C=N/NC(=S)NCC2CCCO2)cc1Br (centres undefined),i,-2,10,-7,2,-8,-6,nt,
O=C(Nc1cnccn1)c1ccc(Cl)cc1,i,-8,-6,2,-7,-4,-6,-19,
CC1(C(=O)NS(=O)(=O)c2ccc(F)cc2F)CCN1C(=O)CCc1ccc(Cl)cc1Cl (centres undefined),nt,nt,nt,6,-1,1,nt,-5,
N#CCCn1cc(C(=O)O)c(-c2cccs2)n1,i,13,-16,?,1,6,6,nt,
COc1ccc(-c2c[n+]3c(n2-c2ccccc2)SCC3)cc1,i,-4,-1,2,-7,-29,-4,3,
CCC(CC)c1nc2cc(OC)c(OC)cc2c(=O)o1,i,0,4,nt,4,1,-1,1,
COc1ccc(/C(N)=N/OC(=O)c2ccco2)cc1OC,i,-5,7,-51,0,1,-6,nt,
CCCOc1ccc(N2C(=O)CC(NCc3ccncc3)C2=O)cc1 (centres undefined),i,1,-4,nt,-3,-5,0,-6,
CSc1ccccc1NC(=O)CN(C)C(=O)COc1cccc2cccnc12,nt,27,nt,nt,-8,7,nt,-3,
CCCCNC(=O)C1CCC(CNc2nc(=S)[nH]c3ccccc23)CC1 (centres undefined),nt,-7,8,0,2,-6,0,-14,
CC(C)CCNC(=O)c1cn(CC(C)C)c(=O)c2c1c1ccccc1n2C,i,6,-2,-4,0,1,1,12,
CCOC(=O)Cn1c(=O)oc2cc(S(=O)(=O)NCc3cccs3)ccc21,i,-12,-6,?,-1,2,-10,-4,
CCNc1nc(CN2CCOCC2)nc2sc3c(c12)CCC3,i,-9,-2,nt,3,7,-6,-28,
CC(=O)Nc1ccc(S(=O)(=O)NCc2nc(-c3cccc(C)c3)no2)cc1,i,-9,nt,2,-19,3,nt,-14,
CN(Cc1ccccc1)C(=O)COC(=O)COc1ccc(Cl)cc1,nt,11,nt,-17,5,-1,nt,nt,
Cc1ccc(N=C(N)N=C(N)N)cc1,i,-7,-7,1,2,3,-2,-1,
CCOC(=O)c1c(-c2ccc(C)o2)csc1NC(=S)NC(=O)N(C)C,i,-13,1,-24,17,6,-2,-8,
NC(=O)CCn1c(C(=O)c2cc(Cl)c(N)c(Cl)c2)c2ccccc2[n+]1[O-],i,-5,-11,13,2,4,-9,-22,
O=C(O)c1ccc(/C=N/NC(=O)c2cc(-c3cccs3)nc3ccccc23)cc1,i,10,22,-1,3,2,2,nt,
O=C(NCCN1CCOCC1)c1ccc(/C=C2\Sc3ccccc3N(Cc3ccc(F)cc3)C2=O)cc1,i,34,-2,19,0,-5,-7,4,
COC(=O)/C=C1\S/C(=N/NC(=O)c2ccccc2)NC1=O,i,-3,5,-24,4,-3,2,-31,

# Structural class, the compounds so far containing an aryl methoxy group
SMILES,Rce1 inhib,CSC inhib,PABP polyA inh,Env fusion inh,MT1-MMP act inh,MT1-MMP act inh RFP,eIF4H inh,Yeast UUG start,others
COc1ccc(CCNC(=O)C2(C)CCC(=O)N2CCC(C)C)cc1OC (centres undefined),i,12,-10,14,1,3,2,4,
COc1cc(/C=N/NC(=S)N/N=C/c2cc(OC)c(OC)c(OC)c2)cc(OC)c1OC,i,-2,-12,0,14,2,-1,nt,
COc1cccc(Cn2cnc3c(NS(=O)(=O)c4cccc(Cl)c4Cl)c(C)c(C)cc32)c1,i,nt,10,-6,-3,-13,11,-10,
COc1ccc(S(=O)(=O)N2CCOCC2)cc1NC(=O)CCCSc1ccccc1,nt,nt,nt,7,1,3,nt,-9,
COc1ccc2c(CC(=O)NCc3cccs3)coc2c1,i,10,-1,-6,-4,-2,13,-10,
CCn1c(=NC(=O)c2ccc(S(=O)(=O)N3CCOCC3)cc2)sc2cccc(OC)c21,i,33,13,nt,-4,-15,0,-52,
COC(=O)C[C@H]1C[C@H]2c3cc(NS(=O)(=O)c4cccc(OC)c4)ccc3O[C@H]2[C@@H](CO)O1,nt,nt,nt,-10,6,5,nt,-6,
CCOc1ccc(C(CCc2ccccc2)NC(=O)c2ccccc2OC)cc1OCC (centres undefined),i,-7,-2,nt,-1,-2,-5,-2,
COc1ccc(C(=O)NCCc2cn3ccccc3n2)cc1,i,-4,-13,-51,3,-2,-4,-13,
COc1ccc(C(CNC(=O)c2ccccc2C)N2CCCC2)cc1 (centres undefined),i,-6,-10,-69,2,5,-17,-13,
COc1ccc(-c2c[n+]3c(n2-c2ccccc2)SCC3)cc1,i,-4,-1,2,-7,-29,-4,3,
CCC(CC)c1nc2cc(OC)c(OC)cc2c(=O)o1,i,0,4,nt,4,1,-1,1,
COc1ccc(/C(N)=N/OC(=O)c2ccco2)cc1OC,i,-5,7,-51,0,1,-6,nt,
